HSD17B inhib: blocks hydroxysteroid 17-beta dehydrogenase activity; Q99714; recombinant HSD17B10, NADH fluorescence kinetic; many of its hits are not listed in these tables; Potency, µM (highest dose often 57.1 µM), for the others: at the highest dose activity change, negative = inhibition, most hits filed as inhibitors; 75,000 tested, 7.6% active; AID 893; active = well fitted inhibition curve with a large enough effect; inconclusive = small, poorly fitted or top-dose-only effect; inactive = no such curve, though single readings can be large or run the other way;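 note: the protocol describes HADH2 (HSD17B10) and not the HSD17B4 of the title; nearly all actives have a fitted effect of over 70% in size; most hits overshoot -100% by far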
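20 nM HADH2, pH 9.0 Tris/Tween; cpd preinc 15 min RT; start w/ 1 mM NAD+ + 90 uM b-hydroxybutyryl-CoA; kinetic fluor ex360/em450 q30s x 4 min; delta last-first.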
Numbers without * were called inactive; ? = inconclusive; [ ] = remark or other dose. % is set by controls: 0 for no effect and ±100 for the full control effect; potency is the fitted concentration of half-maximal effect.

SMILES	HSD17B inhib
Cc1ccc(Cn2nnc3c(=O)n(Cc4cccc(C)c4)cnc32)cc1	-6%
CC(=O)OCc1c(F)c(F)c(-n2nc(C)cc2C)c(F)c1F	3%
CCCCCCCCCCCCCCCCCCOC[C@@H](COP(=O)([O-])OCC[N+](C)(C)C)OC	8%
COc1ccc(S(=O)(=O)N2CCN(C)CC2)cc1Br	5%
CCCN(Cc1cc2ccc(C)cc2[nH]c1=O)C(=O)c1cccnc1	5%
CC(NC(=O)COc1ccccc1)C(=O)OCC(=O)c1cc2ccccc2o1 (stereo not drawn)	-6%
CC1OC(Nc2cccc3ccccc23)C(O)C(O)C1O (stereo not drawn)	32µM*
Cc1cccc(-c2noc(CN(C(=O)CCc3ccccc3)C(C)C)n2)c1	-9%
CS(=O)(=O)N1CCC(c2noc(-c3ccc(C(F)(F)F)cc3)n2)CC1	3%
Cc1noc(C)c1-c1ccc2ncnc(Nc3ccccc3)c2c1	0%
CCCS(=O)(=O)NCc1ccc2c(c1)cc(C)n2C	-14%
Cc1ccc(Cn2c(=O)c3c(nc4n3CCCN4Cc3ccccc3)n(C)c2=O)cc1	8%
O=C(Nc1ccccc1)N1CCCC2(CCN(C(=O)c3ccco3)CC2)C1	3%
COc1ccc(-n2nc3c(c2NC(=O)C2CC2)CS(=O)C3)cc1 (stereo not drawn)	8%
C=C1C(=O)OC2C[C@@]3(C)CCCC(=C)[C@@H]3CC12 (stereo partly drawn)	8%
CN(Cc1nc(-c2cccnc2)no1)S(=O)(=O)c1ccccc1	0%
CN(C)c1ccc(/C=[N+](\[O-])C(C)(C)/C=N/O)cc1	-22%
Cc1ccc2c(CC(=O)Nc3nc(C)cs3)coc2c1	?
O=C(Cn1ccc2ccccc2c1=O)N1CCN(Cc2ccc3c(c2)OCO3)CC1	-5%
CC12CCCCN1CCCc1c2[nH]c2ccccc12 (stereo not drawn)	-14%
Cc1nn2cc(-c3ccccc3)nc2s1	8%
CC12CCC(C(=O)O)(c3nc(C#N)c(C#N)nc31)C2(C)C (stereo not drawn)	7%
COc1cccc(NC(=O)CSc2nccn2-c2cccc(OC)c2)c1	1%
O=C(COC(=O)c1ccccn1)Nc1c(Cl)cccc1Cl	5%
CCOC(=O)c1c(C)[nH]c(C)c1C(=O)Cn1nnc(-c2ccccc2C)n1	-8%

For convenience, some entries already given.
SMILES	HSD17B inhib
CN(C)c1ccc(/C=[N+](\[O-])C(C)(C)/C=N/O)cc1	-22%
Cc1ccc2c(CC(=O)Nc3nc(C)cs3)coc2c1	?
O=C(Cn1ccc2ccccc2c1=O)N1CCN(Cc2ccc3c(c2)OCO3)CC1	-5%

Continued.
SMILES	HSD17B inhib
COc1ccc(N2CCN(C(=O)CSc3ncccc3-c3nc4ccccc4[nH]3)CC2)cc1	32µM*
c1ccc(-c2noc(-c3cccnc3)n2)cc1	-1%
Cc1ccc(/C(O)=C2/C(=O)C(=O)N(Cc3cccnc3)C2c2ccccn2)cc1 (stereo not drawn)	-3%
O=C(CCNS(=O)(=O)c1ccc(Br)s1)N1CCCCC1	7%
Nc1nc(SCCOc2ccccc2)n[nH]1	-6%
O=C1C2C3CCCC3=C3CCCC3C2C(=O)N1c1ccc(Cl)cc1 (stereo not drawn)	?
COCCn1c(=O)c(-c2ccc(F)cc2)nc2cnc(OC)nc21	32µM*
CC(=O)NCCc1ccc(S(=O)(=O)N2CCCC2)cc1	-3%
Cc1nnc(SCC(=O)N2CCN(S(=O)(=O)c3ccc(Cl)cc3)CC2)n(N)c1=O	-6%
CC(C)NC(=O)N1CCC2(CC1)CCN(C(=O)c1cc(C(F)(F)F)cc(C(F)(F)F)c1)CC2	2%
COCC(C)n1c(C)cc(C(=O)Cn2c(=O)oc3ccccc32)c1C (stereo not drawn)	3%
Cc1cc(=O)oc2cc(OCC3CC(c4ccc(N(C)C)cc4)=NO3)ccc12 (stereo not drawn)	25µM*
CSc1nc(-c2ccccc2)ccc1C(N)=O	0%
Cc1c(C(=O)N2CCCCC2)sc(N)c1C#N	-2%
O=S(=O)(c1cc(Cl)ccc1Cl)N1CCN(Cc2ccc3c(c2)OCO3)CC1	3%
CS(=O)(=O)N1CCCC(C(=O)NC2CCCCCCC2)C1 (stereo not drawn)	-4%
C=C(C)COc1ccc(-c2nc(N)ncc2Oc2ccccc2OCC)c(O)c1	-4%
O=C(CCSc1ccc(Cl)cc1)N1CCN(c2ncccn2)CC1	-7%
CCOC(=O)CSc1cc(=O)n(C)c2cc(Cl)ccc12	?
COc1cc2[nH]c(=O)n(CCC(=O)NC3CCN(Cc4ccccc4)CC3)c(=O)c2cc1OC	-24%
COc1cccc(Oc2cn[nH]c2-c2ccc(OC)cc2O)c1	-15%
CCCn1c(=O)c(Cc2ccccc2)c(O)c2ccccc21	32µM*
O=C(O)[C@@H]1CCCN1c1ncnc2sc3c(c12)CCC3	8%
Cc1ccc(N2CC(c3nc4ccccc4n3C)CC2=O)cc1C (stereo not drawn)	-2%
CN1CCN(Cc2c(O)ccc3c(=O)c(Oc4ccccc4Cl)c(C(F)(F)F)oc23)CC1	?

(next part)
SMILES	HSD17B inhib
COc1ccc(NC(=O)c2cccc(-n3cnnn3)c2)cc1	-6%
Cc1c(NS(=O)(=O)c2ccccc2)cc(Cl)c(O)c1C	32µM*
CCN(CC)c1ccc(C(=O)OCC(=O)N2CCN(c3ccccc3)CC2)cc1	2%
Cn1c(=O)n(CCCOc2ccc(Cl)cc2)c2ccccc21	-6%
Cc1ccc(CCNC(=O)c2nnn(-c3cc(C)cc(C)c3)c2N)cc1	16%
COc1ccc(S(=O)(=O)Nc2nnc(C)s2)cc1	-8%
CC[C@H](C)[C@H](N)C1=N[C@H](C(=O)N[C@@H](CC(C)C)C(=O)N[C@@H](CCC(=O)O)C(=O)N[C@@H](C(=O)N[C@H]2CCCCNC(=O)[C@@H](CC(N)=O)NC(=O)[C@@H](CC(=O)O)NC(=O)[C@@H](Cc3cnc[nH]3)NC(=O)[C@@H](Cc3ccccc3)NC(=O)[C@@H]([C@@H](C)CC)NC(=O)[C@@H](CCCN)NC2=O)[C@@H](C)CC)CS1	-6%[25.6 µM]
COc1ccc(S(=O)(=O)N2CCC(C(=O)NCc3ccccn3)CC2)cc1Cl	-14%
COC(=O)CC1C(C)(C)C(=O)C2CC3=C4CC(=O)OC(c5ccoc5)[C@]4(C)CCC3[C@@]1(C)C2=O (stereo partly drawn)	-6%
O=C(CN(C(=O)CCC(=O)Nc1nccs1)c1ccc2c(c1)OCCO2)NCc1ccco1	-6%
CN(C)c1cccc(C(=O)OCC(=O)NCC2CCCO2)c1 (stereo not drawn)	14%
CCCN(CCC)C[C@@H]1CCCCN1CCNC(=O)N1c2ccccc2C(=O)Nc2cccnc21	21%
CCOC(=O)COc1cc2c3c(c(=O)oc2cc1C)CCCC3	107%[activator]
CCOCCCNS(=O)(=O)Cc1ccccc1	24%
O=C(O)CCC(=O)Nc1ccc(C(=O)OC2CCCCC2)cc1	6%
COc1ccc(S(=O)(=O)Cc2ccc(C(=O)NCCCN(C)c3ccccc3)o2)cc1	0%
C=CCOC(=O)Nc1c(C(=O)OC)[nH]c2ccccc12	?
COc1ccc(C(=O)Nc2ccc(S(=O)(=O)N3CCCCC3C)cc2)c(OC)c1OC (stereo not drawn)	-2%
O=C(Nc1ccc(F)cc1F)c1ccc(COc2c(F)c(F)cc(F)c2F)o1	4%
Cc1ccc2cccc(S(=O)(=O)n3nc(C)cc3C)c2n1	-4%
O=C(NCCN1CCOCC1)c1ccc(CS(=O)(=O)c2ccc(Br)cc2)o1	4%
CCN(CC(=O)Nc1ccc2c(c1)OCCO2)Cc1cc(=O)oc2cc(C)c(C)cc12	-4%
Cc1nc2ccc(S(=O)(=O)NCC(=O)N3CCCCC3)cc2s1	8%
CCc1c(C)nc(N)n2c(SCC(=O)N3CCN(c4ccccc4F)CC3)nnc12	8%
CCCCCCC1C(C#N)=C(N)OC2=C1C(=O)CCC2 (stereo not drawn)	32µM*

(listing goes on)
SMILES	HSD17B inhib
CC#CCN(CC#CC)S(=O)(=O)c1ccc(-n2cnnn2)c(OC)c1	-1%
CCCc1ncc(C[n+]2ccccc2C)c(N)n1	-2%
CCCc1cc(=O)[nH]c(/N=C(/NC(=O)C(C)N2C(=O)c3ccccc3C2=O)Nc2ccccc2)n1 (stereo not drawn)	-2%
Cn1c(CCN2CCOCC2)nc2cc(NC(=O)COc3ccc(Cl)cc3)ccc21	4%
CCOC(=O)C1=C(C)NC(C)=C(C(=O)OCC)C1C(=O)OCC(=O)N1CCc2ccccc21	-24%
CCCCN1CCc2c([nH]c3ccc(C)cc23)C1=O	32µM*
O=C(Oc1ccccc1)N1CCC2(CC1)CCN(c1cccc(-c3ccccc3)c1)CC2	?
CN1C(=O)CC[C@@H]1c1cccnc1	7%[25.6 µM]
O=C(Nc1nnc(SCc2ccc(Cl)cc2)s1)c1ccco1	-3%
Cc1cc(C(=O)N2CCCC2C(=O)O)c(C)o1 (stereo not drawn)	-1%
O=C(CSc1nnc(-c2ccccc2)o1)Nn1cnnc1	-2%
CCOCCOC(=O)c1cccc(NC(=O)OCC)c1	-7%
CCn1nnc(-c2ccccc2NS(=O)(=O)c2ccc(S(=O)(=O)N3CCCCCC3)cc2)n1	6%
COC(=O)c1ccc(C(NC(=O)OCc2ccccc2)/C(=C/[C@@H](C)C(=O)NCc2cccnc2)c2cccnc2)cc1 (stereo partly drawn)	12%
O=C1OC(Nc2ccc(F)cc2F)c2ccccc21 (stereo not drawn)	8%
COc1cc2[nH]c(=O)n(CCCCCC(=O)N3CCN(c4ccccn4)CC3)c(=O)c2cc1OC	-9%
CCOC(=O)c1ccccc1NC1CC(=O)N(c2ccccc2C)C1=O (stereo not drawn)	?
CCOc1ccc(-n2c(SCC(=O)NCc3ccco3)nc3c([nH]c4ccccc43)c2=O)cc1	-13%
O=C(CNS(=O)(=O)c1ccc(F)cc1)N1CCN(c2ccccc2)CC1	-1%
CCCCCCCC/C=C\CCCCCCCC(N)=O	-8%
COC(=O)c1ccccc1NC(=O)CN1CCC(NC(=O)c2ccc(C)cc2)CC1	-3%
Cc1noc(C)c1CSc1nnc2scc(-c3ccccc3)n12	19%
CN(Cc1ccco1)c1ncncc1-c1cccc(C#N)c1	8%
CCOC(=O)c1c(C)[nH]c(C(=O)COC(=O)c2ccc(N3CCCC3=O)cc2)c1C	5%
N#Cc1ccc(NC(=O)N2CCC(c3nc4c(nnn4Cc4cccc(Cl)c4)c(=O)[nH]3)CC2)cc1	-1%

Gathered by group, those above with bromine
SMILES	HSD17B inhib
COc1ccc(S(=O)(=O)N2CCN(C)CC2)cc1Br	5%
O=C(CCNS(=O)(=O)c1ccc(Br)s1)N1CCCCC1	7%
O=C(NCCN1CCOCC1)c1ccc(CS(=O)(=O)c2ccc(Br)cc2)o1	4%

Returning to the listing, repeating the 7 entries before the break.
SMILES	HSD17B inhib
O=C(CNS(=O)(=O)c1ccc(F)cc1)N1CCN(c2ccccc2)CC1	-1%
CCCCCCCC/C=C\CCCCCCCC(N)=O	-8%
COC(=O)c1ccccc1NC(=O)CN1CCC(NC(=O)c2ccc(C)cc2)CC1	-3%
Cc1noc(C)c1CSc1nnc2scc(-c3ccccc3)n12	19%
CN(Cc1ccco1)c1ncncc1-c1cccc(C#N)c1	8%
CCOC(=O)c1c(C)[nH]c(C(=O)COC(=O)c2ccc(N3CCCC3=O)cc2)c1C	5%
N#Cc1ccc(NC(=O)N2CCC(c3nc4c(nnn4Cc4cccc(Cl)c4)c(=O)[nH]3)CC2)cc1	-1%
COc1ccc(C)cc1NC(=O)CN(C)S(=O)(=O)c1cccs1	-8%
Cn1c(SCC(=O)N2CCCc3ccccc32)nnc1-c1ccccc1	5%
COc1ccc(C(=O)NC2(C(F)(F)F)N=C3SCCN3C2=O)cc1 (stereo not drawn)	8%
Cc1ccc2c(c1)NC(=O)C(CC(=O)Nc1ccc(CN3CCC(C)CC3)cc1)O2 (stereo not drawn)	-1%
CCC(=O)OCC(=O)C1(OC(=O)CC)C(C)CC2C3C(Cl)CC4=CC(=O)C=C[C@@]4(C)C3C(O)C[C@@]21C (stereo partly drawn)	-2%
COCCN(C(=O)C(F)(F)F)C(C(=O)NC1CCCCC1)c1ccco1 (stereo not drawn)	0%
Nc1ncnc2oc(-c3ccco3)c(-c3ccco3)c12	32µM*
CC(=O)OC(Cn1ccnc1)c1ccccc1 (stereo not drawn)	7%
O=C(OCC(=O)N1CCCc2ccccc21)c1ccc(Br)o1	-1%
COc1ccccc1N1CCN(CC(=O)Nc2ccc(C)c(F)c2)CC1	-2%
CCn1nc(C)c(NC(=O)CSc2nnc(-c3ccco3)n2C)c1C	9%
CNC(=O)CSc1nnc(CCc2ccccc2)n1-c1ccccc1	-5%
COc1ccc(NC(=O)Nc2ccccc2C)c(OC)c1	1%
Cc1cnc(CNc2nc(-c3ccc4c(c3)OCO4)nc3ccccc23)cn1	-2%
CC(C)(C)c1ccc(CN2CCN([C@H](c3ccccc3)c3ccc(Cl)cc3)CC2)cc1	7%[11.4 µM]
c1c[nH]c(CN2CCN(Cc3ncc[nH]3)CC2)n1	4%[11.4 µM]
Cc1nc(SCc2c(F)cccc2Cl)n[nH]1	0%
O=C(NCC1CCCO1)Nc1cccc(Cl)c1 (stereo not drawn)	3%
COc1cccc(C(=O)N(Cc2ccc3c(c2)OCO3)Cc2nc3ccccc3c(=O)[nH]2)c1	-3%

Pulled by compound from the list above (2):
SMILES	HSD17B inhib
CC(=O)NCCc1ccc(S(=O)(=O)N2CCCC2)cc1	-3%
COc1ccc(S(=O)(=O)N2CCN(C)CC2)cc1Br	5%

Compound activity: PubChem BioAssay, National Center for Advancing Translational Sciences (NCATS)

Some of the compounds tested (hit frequency here may not be typical).
